# KCNQ2 pot: potentiators of rat KCNQ2 potassium channel; Potassium voltage-gated channel subfamily KQT member 2 (Rattus norvegicus), O88943; CHO-K1 KCNQ2, FluxOR thallium flux fluorescence; hits give high values; B-score at 10 µM; actives 0.54% (n = 310,000); AID 2239, 2010;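 active means fluorescence ratio B-score at least 3 SD of library B-scores, with initial fluorescence B-score within 3 SD, cut at about 5.3 in these data; same plate scores as AID 2156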;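 further: B-score of peak minus minimum over baseline fluorescence ratio after K+ and Tl+ stimulus; positive B-score means potentiation of KCNQ2 with more thallium influx and brighter signal; only the inactives scoring about 0 or higher are listed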
# Target sequence (O88943 whole entry, looked up): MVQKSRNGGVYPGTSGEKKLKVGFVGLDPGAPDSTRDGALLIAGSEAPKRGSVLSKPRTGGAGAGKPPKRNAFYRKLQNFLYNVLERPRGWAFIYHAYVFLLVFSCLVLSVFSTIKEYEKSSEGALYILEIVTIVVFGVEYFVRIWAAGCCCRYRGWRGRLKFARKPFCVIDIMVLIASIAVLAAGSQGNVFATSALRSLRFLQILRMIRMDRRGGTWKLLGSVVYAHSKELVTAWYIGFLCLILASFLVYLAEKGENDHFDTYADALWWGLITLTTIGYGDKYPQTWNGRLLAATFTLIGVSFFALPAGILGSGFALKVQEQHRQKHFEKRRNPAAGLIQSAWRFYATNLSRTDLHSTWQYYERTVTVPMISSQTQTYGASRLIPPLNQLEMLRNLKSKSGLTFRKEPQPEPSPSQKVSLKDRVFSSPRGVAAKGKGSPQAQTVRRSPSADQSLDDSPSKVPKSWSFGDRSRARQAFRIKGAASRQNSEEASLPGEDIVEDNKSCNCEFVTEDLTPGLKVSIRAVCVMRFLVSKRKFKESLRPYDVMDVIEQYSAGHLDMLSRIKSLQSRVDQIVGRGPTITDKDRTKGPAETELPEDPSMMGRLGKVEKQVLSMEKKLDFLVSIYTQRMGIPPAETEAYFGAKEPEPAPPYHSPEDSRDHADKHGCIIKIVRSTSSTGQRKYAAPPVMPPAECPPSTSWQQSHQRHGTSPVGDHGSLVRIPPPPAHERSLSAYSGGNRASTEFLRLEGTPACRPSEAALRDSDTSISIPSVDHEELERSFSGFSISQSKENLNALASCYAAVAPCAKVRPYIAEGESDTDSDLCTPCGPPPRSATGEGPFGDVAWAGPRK
# KCNQ2 pot baseline: recorded beside KCNQ2 pot, whose call it bears; B-score; compound at 10 µM; measured here: initial fluorescence intensity artifact check;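 brightness before thallium and not channel activity; 0 = typical well and far values either way flag optical interference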
# * hit, by the source's call. Not all compounds are listed, so the mix of outcomes need not match the whole.
# Fields: KCNQ2 pot	KCNQ2 pot baseline
- Cc1ccccc1C(=O)N1CC(=O)Nc2ccc(F)cc2C1c1ccc(F)cc1 (stereo not drawn)
 : 1.1	-0.02
- COc1ccc(N(C(=O)c2snc(C(N)=O)c2N)C(C(=O)NC2CCCC2)c2ccc(OC)c(OC)c2)cc1 (stereo not drawn)
 : 1.2	-0.01
- O=C(Cn1nc(Br)nc1Br)c1ccccc1
 : 0.74	-0.81
- COc1cccc2c(N/N=C/c3ccccc3)cc(C)nc12
 : 0.97	0.23
- Cc1ccc(NS(=O)(=O)c2ccc(N/N=C/c3ccccc3OCC(=O)O)c([N+](=O)[O-])c2)c(C)c1
 : 0.48	0
- COc1ccc(-c2ccc(Nc3ccc(S(=O)(=O)N4CCCC4)cc3)nn2)cc1OC
 : 1.4	-1
- CCc1ccc(NC(=O)CCS(=O)(=O)c2cccc3nsnc23)cc1
 : 0.19	-0.97
- CCOC(=O)C(NS(=O)(=O)c1ccc(C)cc1)(C(F)(F)F)P(=O)(OCC(C)C)OCC(C)C (stereo not drawn)
 : 0.49	0.59
- COc1ccc(CCNC(=O)c2cc(=O)[nH]c3ccccc23)cc1
 : 0.82	0.08
- CCOCCCNS(=O)(=O)c1cc(Br)cc2c1N(C(=O)C1CC1)CC2
 : 0.73	1.1
- O=C(Cc1ccccc1)NCCSC1CCCCC1
 : 1.7	0.06
- COc1ccc(NC(=O)C2CC(=O)N(CCc3ccc(Cl)cc3)C2)cc1 (stereo not drawn)
 : 0.05	0.7
- Cc1ccc(-c2nn3nnnc3c3ccccc23)cc1
 : 0.83	2.4
- CN1CCc2nc(SCC(=O)Nc3cccc(F)c3)c(C#N)c(-c3cccs3)c2C1
 : 0.15	-1.2
- CCCn1c(Nc2ccccc2)nc2ccccc21
 : 0.09	-1.9
- COCCCNC(=O)CC(C)c1ccccc1 (stereo not drawn)
 : 1.3	-1.2
- CN1OC(COC(=O)c2ccccc2)CC1c1ccccc1 (stereo not drawn)
 : 0.67	-0.88
- CCOC(=O)c1cc(C)sc1N1C(=O)C2C3C=CC(C3)C2C1=O (stereo not drawn)
 : 0.28	0.05
- O=C(CCc1ccccc1)NNC(=O)c1ccc(NC(=O)c2ccccc2)cc1
 : 0.8	-1
- CN(CCc1ccccn1)C(=O)Nc1cccc(Cl)c1
 : 0.82	-1.1
- O=C1NCC(O)=C1C=NCCO
 : 0.13	1.3
- CC(=O)N1N=C(c2c(-c3ccccc3)c3cc(Br)ccc3[nH]c2=O)CC1c1ccco1 (stereo not drawn)
 : 0.32	-3.1
- COc1ccc(C(=O)NC(=S)NNC(=O)c2cnccn2)cc1
 : 0.75	-0.15
- CC(=O)/C=C(\C)N=Nc1c(O)[nH]c2ccccc12
 : 1.9	-0.03
- OC(COc1c(F)cc(Br)cc1F)CN1CCOCC1 (stereo not drawn)
 : 0.07	-0.3
- CC(=O)Nc1sc(C)c(C)c1C(=O)OCC(=O)N(CC(C)C)C1CCS(=O)(=O)C1 (stereo not drawn)
 : 0.28	-0.53
- CCOc1nc2cnccc2n(CC(=O)Nc2cccc(C)c2C)c1=O
 : 0.84	-0.94
- CC(=O)NCCC(=O)Nc1nc2ccc(Oc3ccccc3)cc2s1
 : 0.16	-1.1
- CCCC(=O)N1CCN(c2ccc([N+](=O)[O-])c(NC(C)c3ccccc3)c2)CC1 (stereo not drawn)
 : 0.01	0.55
- O=C(CC(=O)N/N=C\c1cccc(Cl)c1Cl)NCc1ccccc1
 : 0.13	-2.4
- CC(C)OP(=O)(OC(C)C)C(Nc1ccc(C(=O)O)cc1)c1ccccc1 (stereo not drawn)
 : 0.11	-0.04
- COc1ccc(CCNC(=O)C2CCCN(S(=O)(=O)c3ccc(F)cc3)C2)cc1OC (stereo not drawn)
 : 0.56	2
- Cc1cccc(OCC(=O)Nc2nnn(C)n2)c1C
 : 0.85	-1.1
- O=C(NNC(=O)c1ccc[nH]1)Nc1cc(Cl)cc(Cl)c1
 : 0.04	-1.1
- CC(=O)NC(Cc1ccc(F)cc1)C(=O)O (stereo not drawn)
 : 0.67	-0.68
- Cc1cc(C)n(CC(O)COc2ccccc2[N+](=O)[O-])n1 (stereo not drawn)
 : 0.51	0.07
- COc1ccc(-n2nc(C(=O)NCC(=O)NCCN(C)C)c3ccccc3c2=O)cc1
 : 1.1	-0.04
- COc1cc(-c2nc3n(n2)C(c2ccc(F)cc2)C2=C(CCCC2=O)N3)cc(OC)c1OC (stereo not drawn)
 : 0.53	-2.8
- COc1ccccc1C(=O)OCC(=O)NCCNC(=O)COC(=O)c1ccccc1OC
 : 1.5	0.93
- COc1ccc(CCC(=O)NC2CCC(C)CC2)cc1 (stereo not drawn)
 : 2.1	-0.66
- CC1=NN(C(=O)CSCc2ccccc2)C(O)(c2ccccc2)C1 (stereo not drawn)
 : 3.3	0.64
- Cc1cccc(C(=O)NCCNC(=O)c2cnccn2)c1
 : 0.38	-1.1
- Clc1nc(CN2CCCCC2)nc2sc3c(c12)CCCC3
 : 0.96	0.61
- CCc1ccc(NC(=O)c2cc(-c3ccc(OC)cc3)on2)cc1
 : 0.35	0.08
- CCOC(=O)C1C(=O)CC(C)(O)C(C(=O)OCC)C1c1ccc2c(c1)OCO2 (stereo not drawn)
 : 1	0.05
- NS(=O)(=O)c1cccc(NC(=O)CCCNC(=O)c2ccc(Cl)cc2)c1
 : 0.51	0.02
- Cc1cc(C)c(S(=O)(=O)Cc2ccc(Cl)cc2)c(=O)[nH]1
 : 1.4	-0.55
- O=C(NCCSCc1ccccc1)c1ccc(Cl)c(S(=O)(=O)N2CCOCC2)c1
 : 0.1	0.83
- COC(=O)c1cccnc1-n1c(=O)c2cccnc2n(Cc2ccc([N+](=O)[O-])cc2)c1=O
 : 0.16	0.04
- Cc1nc(/C(N)=N/OC(=O)c2ccc(Cl)cc2)c(C(F)(F)F)o1
 : 0.32	2.5
- O=c1nc(N/N=C/c2ccco2)cn[nH]1
 : 0.34	-1.1
- Cc1ccc(N(CC(=O)NCc2ccccc2)C(=O)CCC(=O)Nc2ccccn2)cc1C
 : 1.1	0.56
- Cc1nnc(NC(=O)c2nc(S(=O)(=O)Cc3ccccc3C)ncc2Cl)s1
 : 12*	-0.44*
- COC(=O)Cn1c(CCS(=O)(=O)c2ccc(C)c(C)c2)nc2ccccc21
 : 0.19	2.6
- CCCCN(Cc1ccccc1)C(=O)CCN1C(=O)C2C3C=CC(C3)C2C1=O (stereo not drawn)
 : 0.06	-0.41
- O=C(O)CCCn1cc(NC(=O)COc2cc(F)ccc2[N+](=O)[O-])cn1
 : 0.52	1
- O=C(CSc1nnc(-c2ccco2)o1)c1ccc([N+](=O)[O-])cc1
 : 0.21	2.1
- CCOc1ccc(CNC(=O)c2ccc3nc(N4CCOCC4)sc3c2)cc1
 : 1	-0.59
- CC(=O)Nc1ccc(S(=O)(=O)NNC(=O)c2sc(=S)n(C)c2C)cc1
 : 0.67	0.19
- CN(C)c1nnnn1Cc1ccc(Cl)cc1Cl
 : 0.83	0.55

# (list continues)
# Fields: KCNQ2 pot	KCNQ2 pot baseline
- Cn1c(O)c(/C=C2\C=NN=C2c2ccccc2)sc1=S
 : 0.77	0.99
- COC(=O)[C@]1(C)N[C@H](c2ccc(SC3CCCCC3)cc2)[C@@H]2C(=O)N(C)C(=O)[C@@H]21
 : 1	-0.3
- COc1ccc(NC(=S)NCc2cccn2C)cc1
 : 0.44	2.5
- S=C1N(c2ccccc2)C(c2cccc3ccccc23)N2CCCN12 (stereo not drawn)
 : 0.4	1.4
- CCOC(=O)NC(=O)CSc1nc2ccccc2[nH]1
 : 0.46	-1.5
- COC(=O)c1ccc(COC(=O)c2ccc(CO)cc2)o1
 : 1.7	-2.4
- Cc1cccn2c(=O)c3cc(C(=O)NCc4cccnc4)c(=N)n(C(C)C)c3nc12
 : 0.08	0.64
- COc1cccc(/C=N/NC(=O)c2[nH]c(C)c(C(=O)N/N=C/c3cccc(OC)c3)c2C)c1
 : 0.44	1.2
- CC(=O)Nc1ccc(-c2sc(Nc3ccccc3)n[n+]2C)cc1
 : 0.71	0.69
- CC(=O)Nc1ccc(S(=O)(=O)Nc2ccc3[nH]c(=O)[nH]c3c2)cc1
 : 0.57	-3.4
- C=CCn1c(SCC(=O)c2c(N)n(CCC)c(=O)n(C)c2=O)nc2sc(CC)cc2c1=O
 : 0.02	-0.35
- COC(=O)c1c(NC(=O)CC2SC(N)=NC2=O)sc2c1CCCC2 (stereo not drawn)
 : 2.1	1.3
- Cc1ccccc1-c1nnn(CC(=O)Nc2cccc(S(N)(=O)=O)c2)n1
 : 0.24	0.18
- CCc1ccc2c(c1)C1(C(=O)N2)N2CCCC2C(C(=O)c2ccc3ccccc3c2)C12C(=O)Nc1ccccc12 (stereo not drawn)
 : 0.8	-2.5
- Cc1ccc(S(=O)(=O)N[C@H](C(=O)NCC2CCC(C(=O)O)CC2)C(C)C)cc1 (stereo partly drawn)
 : 0.87	0.5
- CCOC(=O)c1c(C)n(C)c2ccc(OC(=O)c3ccc(N4C(=O)CCC4=O)cc3)cc12
 : 0.01	-1.8
- COc1cccc(NC(=O)[C@H](C)NC(=O)N2CCn3c2nc2ccccc23)c1
 : 0.58	0.88
- O=C(Cc1ccc(Cl)cc1)c1c[nH]c(C(=O)NCc2cccnc2)c1
 : 0.08	-0.73
- COc1cccc(CNC(=O)c2ccncc2)c1
 : 0.89	-0.15
- O=C(NC1CC1)C1=C[C@H](c2c[nH]c3ccccc23)C[C@H](OCCCCO)O1
 : 0.21	0.63
- Cc1ccc(Cn2nc(C)c(NC(=O)CSc3nc4c(c(C(F)(F)F)n3)CCc3ccccc3-4)c2C)cc1
 : 1.6	-0.72
- CN(C)CCCNC(NC(=O)c1cccs1)C(Cl)(Cl)Cl (stereo not drawn)
 : 0.02	-0.38
- O=C(NCCS(=O)(=O)NCc1ccco1)c1ccccc1
 : 1.3	1.9
- COCc1cc(C)nc2sc3c(=O)oc(C)nc3c12
 : 0.99	-0.51
- CC1CC(C)CN(CCCNC(=O)c2ccc3c(c2)NC(=O)C(N2CCCCC2)S3)C1 (stereo not drawn)
 : 1.7	-0.94
- O=c1[nH]c2sc3c(c2c2nncn12)CCCC3
 : 2.4	1.4
- O=S(=O)(c1cc(Cl)ccc1Cl)n1cccn1
 : 0.93	0.96
- O=C(CCCc1nc2ccccc2s1)NCc1cccnc1
 : 0.7	2.8
- COC(=O)C1CCN(c2cc(=O)n(-c3ccc(OC)cc3)c(=O)[nH]2)CC1
 : 0.63	0
- Cc1ccc(NC(=O)CN(C)C(=O)COC(=O)C(C)(C)Oc2ccc(Cl)cc2)cc1
 : 1.1	0.58
- Cc1cc(NC(=O)c2ccc([N+](=O)[O-])cc2)no1
 : 2.9	1.3
- Cc1csc(NC(=O)c2sccc2C)n1
 : 0.02	-0.11
- O=C(NCCCN=C1NS(=O)(=O)c2ccccc21)c1ccc(S(=O)(=O)N2CCCCC2)cc1
 : 0.04	-2
- CCCc1nnc(NC(=O)c2cccc(OC)c2)s1
 : 1.1	0.06
- COc1ccc(S(=O)(=O)NC(C)C(=O)O)cc1 (stereo not drawn)
 : 0.34	-1.4
- COc1cc(C(=O)NCc2nnc(SCC(=O)N3CCc4ccccc43)o2)cc(OC)c1OC
 : 0.04	-0.14
- CCCOc1ccc2c(CC)cc(=O)oc2c1C
 : 0.91	0.22
- COc1ccc(CNS(=O)(=O)c2ccccc2Br)cc1
 : 2.9	1.8
- O=C(CCC1CCCN(C(=O)c2ccccc2Cl)C1)N1CCN(c2ccccn2)CC1 (stereo not drawn)
 : 1.1	0.02
- C=CCNC(=O)C1CC(=O)N(c2ccc(OCc3ccccc3Cl)cc2)C1 (stereo not drawn)
 : 0.31	-0.43
- Cc1ccccc1NC(=S)N(CCCN1CCOCC1)Cc1ccccn1
 : 0.73	0.03
- COc1cnc(-c2ccccn2)nc1Oc1cccc(Cl)c1
 : 0.31	0.27
- O=C(CSc1ccsc1[N+](=O)[O-])NC1CCCC1
 : 0.13	-0.84
- Cc1cc(=O)n2[nH]c(SCc3ccccc3)nc2n1
 : 0.09	0.81
- Cn1cc(Br)c(C(=O)NC2C3CC4CC(C3)CC2C4)n1 (stereo not drawn)
 : 0.77	-1.1
- O=C(Cc1ccccc1)Nc1ccccc1N1CCN(c2ccccc2)CC1
 : 2.6	-0.54
- Cc1ccc(N2CC(C(=O)Nc3nnc(SCCN4CCOCC4)s3)CC2=O)cc1 (stereo not drawn)
 : 1	-0.01
- Cc1c(-c2ccccc2)nnn1-c1ccc(F)cc1F
 : 0.07	0.96
- COc1ccc(/C=C/C(=O)C(C(N)=O)=C2SCCS2)cc1
 : 1.3	0.48
- CC(C)N(CCNC(=O)c1oc(=O)c2ccccc2c1-c1ccccc1)Cc1ccco1
 : 0.99	0.51
- CCn1c(CNC(=O)COc2ccc(C(C)C)cc2)nnc1SCC(=O)NC1CCCCC1C (stereo not drawn)
 : 0.5	2.5
- Cc1ccc(C(=O)OCC(=O)NCCN2C(=O)CSC2=O)cc1
 : 0.2	1.8

# Screens from PubChem.
